# KCNQ2 block: KCNQ2 potassium channel inhibitors, primary screen, cell-based, CHO-K1, FluxOR thallium flux, B-score (AID 2156). actives 1.1% (n = 310,000). B-score at 10 µM. 20 min; active compounds read low; only compounds with negative scores are shown here; some inactives read as strong as hits;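 active = fluorescence ratio B-score at most minus 3 library SDs, with starting brightness B-score within 2 library SDs, cut at about -5.5 in these data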
# Target sequence (O88943 whole entry, looked up): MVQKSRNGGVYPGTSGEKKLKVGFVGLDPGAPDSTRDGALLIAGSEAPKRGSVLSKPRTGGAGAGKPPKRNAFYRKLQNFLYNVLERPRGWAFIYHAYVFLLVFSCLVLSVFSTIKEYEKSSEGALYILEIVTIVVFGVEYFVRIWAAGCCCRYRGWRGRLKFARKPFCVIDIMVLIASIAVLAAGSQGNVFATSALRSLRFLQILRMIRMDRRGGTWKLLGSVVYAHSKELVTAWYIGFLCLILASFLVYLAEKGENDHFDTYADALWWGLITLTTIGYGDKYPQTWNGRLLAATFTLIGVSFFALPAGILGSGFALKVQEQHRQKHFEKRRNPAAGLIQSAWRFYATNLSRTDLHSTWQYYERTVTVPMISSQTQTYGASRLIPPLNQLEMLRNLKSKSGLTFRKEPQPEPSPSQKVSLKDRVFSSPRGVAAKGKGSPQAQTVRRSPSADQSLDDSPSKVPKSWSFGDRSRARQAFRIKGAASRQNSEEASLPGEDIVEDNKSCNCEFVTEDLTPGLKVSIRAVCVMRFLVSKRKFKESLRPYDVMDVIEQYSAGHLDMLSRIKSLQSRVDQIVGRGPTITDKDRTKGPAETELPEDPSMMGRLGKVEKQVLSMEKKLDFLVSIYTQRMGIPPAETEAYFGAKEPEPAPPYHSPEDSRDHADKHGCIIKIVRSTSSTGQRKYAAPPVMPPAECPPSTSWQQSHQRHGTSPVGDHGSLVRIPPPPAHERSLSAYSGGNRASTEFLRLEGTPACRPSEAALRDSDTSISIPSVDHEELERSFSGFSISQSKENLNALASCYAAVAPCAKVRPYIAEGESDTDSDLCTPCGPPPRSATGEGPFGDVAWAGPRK
# KCNQ2 block baseline: also measured in KCNQ2 block; calls as there; B-score; measured here: initial fluorescence intensity artifact check;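 brightness before thallium and not channel activity; 0 = typical well and far values either way flag optical interference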
# * hit, by the source's call; i = inactive. An excerpt (hit frequency here may not be typical).
SMILES,KCNQ2 block,KCNQ2 block baseline
O=C(O)C1C2CCC(C2)C1C(=O)Nc1cccc([N+](=O)[O-])c1 (stereo unspecified),i,1.6
COCCCn1c(=O)/c(=C\c2ccccc2OC(F)F)s/c1=C(/C#N)C(N)=O,i,-1.8
CCN(CC)S(=O)(=O)c1ccc(C(=O)Nc2cc(C)cc(C)c2)cc1,i,-0.88
Cc1cc(N2CCN(c3ccccn3)CC2)n2cc(-c3ccccc3)nc2n1,i,-1.6
CC(C)COP(=O)(OCC(C)C)C(O)c1ccc2c(c1)OCO2 (stereo unspecified),i,-1.6
COc1ccccc1OCCOCCOc1ccccc1Cl,i,0.68
O=C(Nc1ccc(Cl)cn1)c1cccc(S(=O)(=O)N2CCOCC2)c1,i,0.51
CCN(C(=O)CSc1nnc(-c2ccc(OC(F)F)cc2)n1N)C1CCS(=O)(=O)C1 (stereo unspecified),i,-2.2
CCSC1=N/C(=C\c2cccc(F)c2)C(=O)S1,i,0.05
O=C(O)c1ccc(CNS(=O)(=O)c2ccc(Oc3ccccc3Cl)cc2)cc1,i,-1.1

# Four of these compounds in another layout:
O=C(O)C1C2CCC(C2)C1C(=O)Nc1cccc([N+](=O)[O-])c1 (stereo unspecified)
  KCNQ2 block = i | KCNQ2 block baseline = 1.6

O=C(O)c1ccc(CNS(=O)(=O)c2ccc(Oc3ccccc3Cl)cc2)cc1
  KCNQ2 block = i | KCNQ2 block baseline = -1.1

CC(C)COP(=O)(OCC(C)C)C(O)c1ccc2c(c1)OCO2 (stereo unspecified)
  KCNQ2 block = i | KCNQ2 block baseline = -1.6

CCN(CC)S(=O)(=O)c1ccc(C(=O)Nc2cc(C)cc(C)c2)cc1
  KCNQ2 block = i | KCNQ2 block baseline = -0.88

# Back to the main list, repeating the three entries before the break.
SMILES,KCNQ2 block,KCNQ2 block baseline
CCN(C(=O)CSc1nnc(-c2ccc(OC(F)F)cc2)n1N)C1CCS(=O)(=O)C1 (stereo unspecified),i,-2.2
CCSC1=N/C(=C\c2cccc(F)c2)C(=O)S1,i,0.05
O=C(O)c1ccc(CNS(=O)(=O)c2ccc(Oc3ccccc3Cl)cc2)cc1,i,-1.1
Cc1[nH]c2ccc(F)cc2c1CCNC(=O)C1CCCCC1C(=O)OCC(F)(F)F (stereo unspecified),i,-0.83
O=C(NCCc1ccc(Cl)cc1)c1ccc(CS(=O)Cc2ccccc2Cl)o1 (stereo unspecified),i,-0.24
Cc1ccc(C(=O)Oc2ccc(C(=O)COC(=O)C3CC(=O)N(Cc4ccco4)C3)cc2)cc1 (stereo unspecified),i,-0.5
O=C1CC(Sc2nnc(-c3ccccc3O)o2)C(=O)N1c1ccccc1 (stereo unspecified),i,-1.4
CCC1CCCCN1CCCNC(=O)C1CCN(Cc2nc(-c3ccc(Cl)cc3)oc2C)CC1 (stereo unspecified),i,0.49
C#CCOc1ccccc1/C=N/NC(=O)c1ccccc1OCc1ccccc1,i,0.92
CC(C)C[C@H](NC(=O)OC(C)(C)C)c1n[nH]c(=S)n1N,i,0.37
CC(NCc1ccco1)C(=O)N1CCc2ccccc2C1 (stereo unspecified),i,2.8
O=C(CCc1nnc(C2CCCCC2)o1)N1CCN(Cc2ccccc2)CC1,i,1.7
COc1cc(NC(=S)NCc2cccs2)cc(OC)c1,i,8.3
CCOC(=O)c1sc2nccc(N(C)C)c2c1N=CNOCc1c(F)cccc1Cl,-6.2*,-0.65*
O=C(Cc1ccccc1[N+](=O)[O-])Nc1ccc(S(=O)(=O)N2CCCC2)cc1,i,-0.23
CC(C)CC(NC(=O)C(CO)NC(=O)C1CCC(=O)N1)C(N)=O (stereo unspecified),i,0.91
Cc1oc2c(c(C)cc3oc(=O)c(CC(=O)N[C@@H](CC(C)C)C(=O)O)c(C)c32)c1C,i,0.2
COC(=O)CC1C(=O)NCCN1C(=S)Nc1ccccc1Cl (stereo unspecified),i,-0.35
CCOc1ccccc1NC(=O)NCc1ccc2c(c1)OCO2,i,-0.02
CCOc1cc(C(C(=O)NCC2CCCO2)N(C(=O)Cn2nnc3ccccc32)c2ccc(NC(C)=O)cc2)ccc1O (stereo unspecified),i,1.3
O=C(Nc1nnc(COc2ccc(F)cc2)s1)c1cccs1,i,-0.78
CCOc1ccc(OCCC(=O)OCC(=O)Nc2ccc3c(c2)OCCO3)cc1,i,2.1
CCCN1C(=O)/C(=C2/C=Cc3ccccc3N2CC)SC1=S,i,-0.18
FC(F)Sc1ccc(NC(=S)NC2CCCCC2)cc1,i,-0.7
CCCN(CC(=O)Nc1ccc(C(N)=O)cc1)CC(=O)Nc1cc(Cl)ccc1Cl,i,-0.04
O=C(c1ccco1)N1CCN(C(c2ccccc2Cl)c2nnnn2Cc2cccs2)CC1 (stereo unspecified),i,-1.6
CCCC1(c2ccccc2)NC(=O)N(CC(=O)Nc2ccccc2C(F)(F)F)C1=O (stereo unspecified),i,-0.65
CCN(CC)CC(=O)Nc1nn(-c2ccccc2)nc1C(N)=O,i,-0.22
COc1cc(CC(=O)Nc2nc(-c3ccccc3)c(C(C)=O)s2)cc(OC)c1OC,i,0.16
COc1ccc(Cl)cc1NC(=O)CN(C)C(=O)CCC(=O)c1cc(C)sc1C,i,-0.41
COc1cc(COC(=O)Oc2ccc(CNC(C)=O)cc2OC)c([N+](=O)[O-])cc1OC,i,0.92
CN(Cc1ccccc1)c1ccc(C(CC(N)=O)NC(=O)Cc2cccc3ccccc23)cc1[N+](=O)[O-] (stereo unspecified),i,0.12
Cc1nn(-c2ccccc2)c2sc(C(=O)OCC(=O)N3CCCCC3)cc12,i,0.03
CC(C)(C)c1ccc(C(=O)/C(C#N)=C/c2cccs2)cc1,i,1.1
CN(C(=O)COC(=O)Cn1c(C(F)(F)F)nc2ccccc21)c1c(N)n(Cc2ccccc2)c(=O)[nH]c1=O,i,1.7
COc1cccc2sc(NC(=O)c3ccc(S(=O)(=O)N4CCOCC4)cc3)nc12,i,0.09
Cc1cccc(C)c1NC(=O)c1sccc1SCc1cccc(C(F)(F)F)c1,i,-1.6
Cc1cnc(CN(C)Cc2c(C(=O)N3CCCCCCC3)nc3ccc(Cl)cn23)[nH]1,i,0.11
Cc1ccc(C2C(C(=O)c3cccs3)=C(O)C(=O)N2CCN2CCOCC2)o1 (stereo unspecified),i,1.7
CCCC(=O)C1=C(O)C(C(=O)OC)C(C)(C)CC1=NC(C)C (stereo unspecified),i,2.7
CC(=O)N/N=C/c1cc(C(C)C)cc(/C=N/NC(C)=O)c1O,i,5.7
O=C(O)c1cn(Cc2ccccc2)c2ccc(Cl)cc2c1=O,i,1.1
COc1ccc(C(=O)NCc2nnc(SCC(=O)Nc3ccccc3OC)n2C)cc1,i,0.73
CCOC(=O)CCc1c(C)nc2c(c(C)nn2-c2ccccc2)c1C,i,-2
Cc1ccc(-c2nnn(CCC(=O)N3CCCCC3C)n2)cc1 (stereo unspecified),i,-0.52
CN=C1S/C(=C\c2ccc(N3CCCC3)c(F)c2)C(=O)N1C,i,1.9
Cc1ccc(COc2ccc(/C=N/NC(=O)c3ccc(CN4CCOCC4)cc3)cc2)cc1,i,0.11
CCOC(=O)c1ccccc1NC(=O)CSc1nnc(COc2ccccc2)n1CC,-6.4*,0.9*
COC(=O)C1CSc2[nH]c(=O)sc2C1c1ccccc1 (stereo unspecified),i,4.6
CN=C(c1ccco1)n1c(=S)nc(-c2ccco2)n(C)c1=S,i,0.84
Cc1cc(/C=C(\C#N)C(=O)Nc2ccc(F)cc2)c(C)n1-c1ccc(N2CCOCC2)c([N+](=O)[O-])c1,i,-0.2
COCCNC(=O)/C(C#N)=C/c1cccs1,i,-0.45
NS(=O)(=O)c1ccc(N/N=C/c2ccc(O)cc2O)c([N+](=O)[O-])c1,i,0.32

# Going on with the list.
SMILES,KCNQ2 block,KCNQ2 block baseline
Cc1cccc(C)c1NC(=O)C(NC=O)c1ccccc1Cl (stereo unspecified),i,-1.9
CS(=O)(=O)N1CCN(C(=O)Cc2cccs2)CC1,i,-0.4
O=c1c2ccccc2nnn1Cc1ccc(F)cc1,i,0.09
COC(=O)c1cc(COc2ccc3oc(C)c(C(=O)OC)c3c2)c(C)o1,i,1.8
O=C(COc1ccc([N+](=O)[O-])cc1)Nc1cccnc1,i,-1.1
COc1ccc(OCC(O)CNCCNc2nccc(C(F)(F)F)n2)cc1 (stereo unspecified),i,2.8
CC(C)Cc1nnc(NC(=O)c2ccc3c(c2)NC(=O)C(C)S3)s1 (stereo unspecified),i,0.3
O=C(N/N=C/c1ccncc1)c1nc2ccccc2c(=O)[nH]1,i,-1.2
CCN(CC)C(=O)Cn1cc(C(=O)C(=O)N2CCc3ccccc32)c2ccccc21,i,1.2
COc1ccc(CCNc2ncnc3c2c(C)c(C)n3CCCN(C)C)cc1OC,i,2.3
COc1ccc(NC(=O)c2c(NC(=O)CNCC(C)C)sc3c2CCC3)c(OC)c1,i,0.14
O=C(Nc1ccccc1N1CCCC1)C1CCN(S(=O)(=O)c2cccc(C(F)(F)F)c2)CC1,i,-0.67
CCOC(=O)c1ccc(N2CCN(c3ccccc3F)CC2)c(NC(=O)Nc2ccccc2)c1,-6.3*,-1*
Cc1ccc(-n2nc3c(=O)n(CC(=O)NCCc4ccc(Cl)cc4)nc(C)c3c2C)cc1,i,0.06
O=C(NCc1ccccc1)c1ccc(CS(=O)(=O)c2ccccc2)o1,i,2.4
NS(=O)(=O)c1ccc(NC(=O)CN2CCCc3ccccc32)cc1,i,-0.13
Cc1ccc(-c2nc(CS(=O)CC(=O)NCCN3CCCC3)c(C)o2)cc1 (stereo unspecified),i,-2.4
COc1cccc(CNC(=O)C2CCC(CNc3c(N4CCC(C)CC4)c(=O)c3=O)CC2)c1 (stereo unspecified),i,-0.31
O=C(N/N=C(\Cc1ncc[nH]1)c1ccccc1)c1ccccc1,i,1.6
O=C(COC(=O)c1ccc(O)cc1)Nc1ccc2[nH]c(=O)[nH]c2c1,i,-0.58

# Copied from the list:
# KCNQ2 block baseline with `O=C(COC(=O)c1ccc(O)cc1)Nc1ccc2[nH]c(=O)[nH]c2c1` → -0.58
# KCNQ2 block baseline with `CCOC(=O)c1ccc(N2CCN(c3ccccc3F)CC2)c(NC(=O)Nc2ccccc2)c1` → -1*
# KCNQ2 block baseline with `O=C(N/N=C(\Cc1ncc[nH]1)c1ccccc1)c1ccccc1` → 1.6
# KCNQ2 block baseline with `Cc1ccc(-n2nc3c(=O)n(CC(=O)NCCc4ccc(Cl)cc4)nc(C)c3c2C)cc1` → 0.06
# KCNQ2 block baseline with `NS(=O)(=O)c1ccc(NC(=O)CN2CCCc3ccccc32)cc1` → -0.13

# Additional entries:
SMILES,KCNQ2 block,KCNQ2 block baseline
Cc1ccccc1NS(=O)(=O)c1cc(C(=O)Nc2cccc([N+](=O)[O-])c2)ccc1C,i,-0.91
O=C(NCc1ccco1)c1ccc(Br)s1,i,-0.74
Cc1ccc(Nc2nc(OC(C(F)(F)F)C(F)(F)F)nc(N3CCOCC3)n2)cc1,i,0.13
COc1ccccc1CNC(=O)c1ccc(OCc2c(C)noc2C)c(OC)c1,i,0.46
O=C(NCc1cccc(Cl)c1)c1ccc2c(c1)OCO2,i,3
COC(=O)c1c(C)cc(OC(C)=O)c(C)c1OC(C)=O,i,-1.4
CCc1nc(N2CCCC(C)C2)c2oc3ccccc3c2n1 (stereo unspecified),i,-0.82
O=C(Nc1n[nH]c(=S)s1)c1ccco1,i,-1.9
CCOc1cc(C(=S)N2CCOCC2)ccc1OC,i,1.1
O=C(N1CCCC1)n1c(Cc2ccccc2)nc2ccccc21,i,-1.5
Cc1cccc(C)c1NC(=O)c1c(O)c2ccccc2[nH]c1=O,i,1
CS(=O)(=O)N1N=C(c2ccccc2)CC1c1cccs1 (stereo unspecified),i,-1.3
O=C(CCn1c(=O)c2ccccc2n(Cc2cccc([N+](=O)[O-])c2)c1=O)N1CCc2ccccc2C1,i,1
CC12CCC(C(=O)Nc3nc4ccc(Br)cc4s3)(OC1=O)C2(C)C (stereo unspecified),i,-0.31
Cc1nn(-c2ccccc2)nc1CNC(=O)c1ncoc1-c1ccccc1,i,0.62
COc1ccc(OC)c(N=c2ssnc2Cl)c1,i,-0.89
Cc1onc(-c2c(Cl)cccc2Cl)c1C(=O)O/N=C(\C#N)c1ccccc1,i,0.9
Fc1ccc(NCc2n[nH]c(=S)n2Cc2ccccc2)cc1,i,-1.5
CCOC(=O)c1c(S(=O)(=O)NCC(=O)Nc2ccc(F)cc2)c(C)n(C)c1C,i,2.9
COc1ccc(C(=O)c2ccccc2)c2c(O)ccc(C(=O)c3ccccc3)c12,i,0.01
CC(C)(C)C1CCC2(CC1)SCC(=O)N2c1ccccc1 (stereo unspecified),i,-1.4
COc1ccc(C(=O)Nc2ccccc2C(=O)Nc2ccc(C(=O)O)cc2)cc1,i,0.4
O=Nc1c2cc(-c3ccccc3)[nH]nc-2c2ccccc12,i,-1.9
O=C(CC1SC(=Nc2ccc(OC(F)F)cc2)N(CCN2CCOCC2)C1=O)Nc1ccccc1 (stereo unspecified),i,-2.9
CCOc1c(OC)cccc1C(=O)NCC1(c2ccccc2)CCCC1,i,0.19
O=C(CN1CCOCC1)N/N=C/c1cc2ccccc2nc1Cl,i,0.13
Fc1ccc2nc(N3CCCC3)sc2c1,i,0.56
COc1ccc(CNc2ccccc2SC)cc1OC,i,0.04
Cc1c(C)n(Cc2ccc(Cl)cc2)c2ccc(C(=O)NCCN3CCOCC3)cc12,i,1.4
COc1cc([N+](=O)[O-])ccc1NC(=O)Nn1cnnc1,i,0.94
COc1ccc(CCNC(=O)c2cc3c(F)cccc3s2)cc1OC,i,-0.56
CCN1CCN(Cc2ccc(NC(=O)c3ccc(C)c(NC(=O)c4nccnc4N)c3)cc2C(F)(F)F)CC1,i,0.69
Cc1ccccc1NC(=O)COc1ccc(Br)cc1CNCCCO,i,-0.84
Cc1cc(=S)c2ccccc2[nH]1,i,-0.04
COc1ccc(CCNC(=O)Cn2cnc3c(cnn3C(C)(C)C)c2=O)cc1OC,i,1.8
O=C(NCC(=O)N1CCN(c2ccccc2O)CC1)C1CCCCC1,i,-0.57

# In another format: results already given
# Sequence of screens – KCNQ2 block | KCNQ2 block baseline
- CCN1CCN(Cc2ccc(NC(=O)c3ccc(C)c(NC(=O)c4nccnc4N)c3)cc2C(F)(F)F)CC1
    i | 0.69
- Cc1ccccc1NC(=O)COc1ccc(Br)cc1CNCCCO
    i | -0.84
- Cc1cc(=S)c2ccccc2[nH]1
    i | -0.04

# Assay outcomes from PubChem BioAssay.
